High-throughput results as filed in PubChem.
PrP 5UTR inh – inhibition of PrP 5' UTR reporter expression. cell-based PrP 5' UTR mRNA reporter, plate reader. inhibition, % (test concentration not listed). hit rate 0.35% among 340,000;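 active = every replicate at 50% or more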;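 note: 0 = median of the neutral control wells; tested in H4 reporter cells; numbers are from one replicate; inactives centre near -14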
Sa RN4220 lethal – growth inhibition of S. aureus RN4220, primary screen, OD600. 16 h. inhibition, % (test concentration not listed). hit rate 0.33% among 330,000. AID 1259311, 2017;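 active = z-score of -3 or lower and OD600 up to 0.18 on both plates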;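 note: plate controls were untreated cells for no effect and reference antibiotic for full effect; stock transfer was 100 nL into about 80 µL; one replicate is shown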
Autofluor counter – counter-screen for toxin protease inhibitors: compound fluorescence | compound autofluorescence counterscreen, microsphere flow cytometry; active compounds read high | fluorescence intensity (test concentration not listed) | hit rate 3.1% among 360,000;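 active = at least 3 SD above the mean of all compounds, about 16000 in these data; inconclusive = too few beads counted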;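 note: 100 nL of 1 mM stock went into each well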
Sa ugtP lethal – growth inhibition of ugtP-null S. aureus, primary screen, RN4220 ugtP deletion, OD600; 16 h; some inactives read as strong as hits; growth inhibition, % (no concentration beside the values); hit rate 0.54% among 330,000; AID 1259309, 2017;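 active = z-score under -3 and OD600 up to 0.15 on both plates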;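 note: plate controls were untreated wells for no effect and antibiotic for full effect; wells of about 80 µL received 100 nL stock; the first replicate is given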
BJeLR viability – MLPCN primary cell-based screen for lethality selective to Ras in HRASV12 cells | inhibition, % (test concentration not listed) | hit rate 0.17% among 300,000 | BJeLR (HRASV12) viability, CellTiter-Glo ATP luminescence, 48 h; reference of the scale not given here | AID 1554, 2009;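 active = replicate mean above 50%; inconclusive = above 50% but judged a plate artefact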;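 note: 50 nL library stock added to about 25 µL; numbers are from one replicate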
Mtb hypoxia rep – PubChem AID 1159583 | hit rate 0.1% among 300,000 | M. tuberculosis hypoxia-regulated fluorescent reporter, fluorescence | fluorescence inhibition, % (test concentration not listed);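 active = 35 to 45% if threefold the growth effect, above 45% if 1.5-fold the growth effect; inactive = the rest, general growth blockers included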;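 note: wells of about 50 µL received 100 nL stock; 0% = vehicle wells and 100% = reference inhibitor wells; whole bacteria with a GFP reporter of the hypoxia response; strong numbers were not always called active; many hits fall short of the cut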
Mtb hypoxia rep growth – also measured in Mtb hypoxia rep; calls as there; growth inhibition, %; measured here: M. tuberculosis growth (absorbance);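 0% = vehicle and 100% = reference antibiotic; read after six days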
* hit, by the source's call; ? = inconclusive; / = no result given.

Molecule	PrP 5UTR inh	Sa RN4220 lethal	Autofluor counter	Sa ugtP lethal	BJeLR viability	Mtb hypoxia rep	Mtb hypoxia rep growth
CCOC(=O)c1cnc(-c2ccccc2)nc1N1CCOCC1	10	6.0	2401	-4	1	9	10
O=C(CCc1ccccc1)Nc1cc(C(F)(F)F)ccc1Cl	/	3.7	11397	-19	5	3	-1
Cc1ccsc1C=NNC(=O)Cn1cnc2ccccc21	/	14	/	-9	/	6	-2
COc1ccc(CNC(=O)C2CCCC2)cc1	14	2.7	5537	11	4	22	11
O=C(O)c1ccc(/C=N/Nc2ccc(S(=O)(=O)N3CCCC3)cc2[N+](=O)[O-])cc1	-7	/	5252	/	1	/	/
O=C(CC1SC(=NCc2ccccc2)NC1=O)Nc1ccccc1 (configuration not stated)	-14	-2.7	2051	-9	-7	0	9
CN(C)S(=O)(=O)n1ccnc1	-29	2.1	11230	5	11	4	2
CC(=O)c1ccc(OCC(O)CN2CCN(c3ccc(F)cc3)CC2)cc1 (configuration not stated)	-17	2.0	3899	6	-6	16	8
CCc1cc(=O)oc2cc(OCC(=O)NCCN3CCOCC3)c(Cl)cc12	-2	0.6	5753	-3	5	2	6
COc1ccc(C2N(c3ccccn3)C(=O)C3CCCN32)c(OC)c1 (configuration not stated)	-22	7.9	9624	5	-12	5	0
Cc1sc2nc(CSc3ncn[nH]3)[nH]c(=O)c2c1C	-22	3.2	3324	-6	6	-11	-7
CC(C)OCCCNc1ncnc2c1[nH]c1ccc(F)cc12	-20	0.7	3214	-21	8	8	11
CC(C)Cc1nc(S(=O)(=O)c2ccc(Cl)cc2)c(N2CCOCC2)o1	-3	/	2917	/	-3	/	/
O=C(Nc1ccc(C(=O)O)cc1)/C(=C\c1ccco1)NC(=O)c1ccccc1	-28	-2.3	3704	-4	-1	-1	6
Cc1c(OC(C)C(=O)O)ccc2c3c(c(=O)oc12)CCCC3 (configuration not stated)	-20	2.5	3393	18	-2	2	7
CC(C)(C)c1cc2cccnc2n1Cc1cccc(Cl)c1	-14	-0.5	?	5	12	11	4
COC(=O)c1sccc1NC(=O)c1ccc(C)s1	-8	28	10271	-11	0	11	9
CCN(CC)C(=O)c1cc2c(=O)c3cc(F)ccc3oc2nc1C	-27	2.6	2677	-2	7	23	11
CCN(CC)C(=O)C1CCCN(C(=O)c2oc3ccc(C)cc3c2C)C1 (configuration not stated)	-3	3.1	5688	6	-5	16	3
CCn1cc(C(=O)NC(=S)Nc2ccccc2Br)cn1	-22	1.2	6078	25	2	4	6
COc1ccc(C2c3c(nc[nH]c3=O)Oc3nc[nH]c(=O)c32)cc1	-5	3.2	3616	4	9	13	7
COc1cccc(-n2c(Cc3cc(=O)[nH]c(=O)[nH]3)nnc2SCC(=O)NC2CCCCC2)c1	-5	-0.9	5499	1	/	/	/
COc1ccc2c(COC(=O)CC3Sc4ccccc4NC3=O)cc(=O)oc2c1 (configuration not stated)	-15	10	2137	-18	7	-6	5
CCOC(=O)CSc1nnc(-c2ccco2)n1-c1ccccc1	-6	-3.4	10868	-5	4	1	14
O=C(NCCc1nnc2ccc(NCCCN3CCOCC3)nn12)c1ccccc1F	-21	4.2	5164	9	1	5	6
CCCCC(=O)Nc1ccnc(-c2cccnc2)n1	-22	-1.6	11497	7	0	3	8
Cc1ccc(NC(=O)c2ccc(CSc3nnc(-c4ccncc4)n3C)cc2)cc1	-26	-9.3	2518	-3	-7	1	-2
Cc1nc(C(=O)NCCC(C)C)sc1C1(C)CC(c2cccc([N+](=O)[O-])c2)=NO1 (configuration not stated)	-30	0.1	2917	4	-7	4	8
COc1ccc(/C=N\NC(=O)c2ccccc2Br)cc1COc1ccc(F)cc1	-2	/	5955	/	-14	/	/
Cc1cc(C(=O)NNC(=O)c2cccc([N+](=O)[O-])c2)n[nH]1	-4	3.1	5885	2	/	6	5
CSc1ccccc1NC(=O)Nc1cccc(Cl)c1C	0	3.1	3467	-3	-15	7	1
CCOC(=O)c1cnc(N2CC2)nc1N	-13	2.0	4118	0	/	13	10
O=C(CSc1nnc(-c2ccc(Br)o2)n1Cc1ccccc1)c1ccccc1F	-9	0.2	3797	-4	-4	-4	3
Cc1cccc(NC(=O)CN(CC2CCCO2)C(=O)c2oc3ccccc3c2C)c1C (configuration not stated)	-7	16	3535	-4	/	15	14
CCc1ccccc1N1C(=O)CC(=O)NC1=O	-81	10	3909	4	6	1	-1
Cc1ccc2cc(CCNC(=O)CC(C)(C)C)c(=O)[nH]c2c1C	-3	4.0	5471	-6	0	6	2

Exported with each value named: two of the compounds above
smiles: O=C(CSc1nnc(-c2ccc(Br)o2)n1Cc1ccccc1)c1ccccc1F
  PrP 5UTR inh: -9 | Sa RN4220 lethal: 0.2 | Autofluor counter: 3797 | Sa ugtP lethal: -4 | BJeLR viability: -4 | Mtb hypoxia rep: -4 | Mtb hypoxia rep growth: 3
smiles: Cc1cccc(NC(=O)CN(CC2CCCO2)C(=O)c2oc3ccccc3c2C)c1C (configuration not stated)
  PrP 5UTR inh: -7 | Sa RN4220 lethal: 16 | Autofluor counter: 3535 | Sa ugtP lethal: -4 | BJeLR viability: / | Mtb hypoxia rep: 15 | Mtb hypoxia rep growth: 14

Continued.
Molecule	PrP 5UTR inh	Sa RN4220 lethal	Autofluor counter	Sa ugtP lethal	BJeLR viability	Mtb hypoxia rep	Mtb hypoxia rep growth
O=C(NC(=S)Nc1ccc(Br)cn1)c1cccnc1	-20	1.5	5725	24	9	14	10
O=C(NCCNc1ccc(Cl)cc1[N+](=O)[O-])c1ccccc1F	-26	4.4	4266	2	-3	8	5
O=C(Cn1c(=O)oc2cc(S(=O)(=O)N3CCCC3)ccc21)NCc1ccccn1	-17	-1.8	4460	-8	6	-1	8
CCOc1ccc(C(CCc2ccccc2)NC(=O)c2ccccc2)cc1OCC (configuration not stated)	10	19	21649*	12	1	4	-1
Cc1nc(C)c(C(=O)Nc2ccccc2-c2ccccc2)o1	-13	3.3	23592*	-4	-13	-6	6
CC1CC(C)CN(c2nc(NCc3ccco3)nc(N)c2[N+](=O)[O-])C1 (configuration not stated)	-9	7.5	2276	1	-5	15	3
CCOCCCNC(=O)c1ccc(/C=C2\Oc3ccccc3N(C)C2=O)cc1	2	1.9	3773	2	5	-7	1
Cn1cc(CC(=O)NCCCN2CCOCC2)c2ccccc21	-7	1.1	2034	11	-1	2	-1
COc1ccc(OC)c(-c2nnc(-c3ccc(C)o3)o2)c1	-28	5.9	4275	-5	-7	11	13
Cn1c(CCNC(=O)c2ccccc2)nc2cc(NC(=O)c3ccco3)ccc21	-26	0.2	4228	13	-5	8	5
c1cc2c(cc1CN1CCOCC1)OCO2	-3	2.7	5900	7	-8	12	7
O=C(N/N=C/c1ccc(Br)cc1)c1cc[n+]([O-])cc1	2	/	5250	/	0	/	/
CCCCNC(=O)c1ccccc1SCc1c(C)noc1C	-2	0.0	4569	14	-6	-1	-4
Cc1ccc(NC(=O)CSC(N)=O)cc1Cl	-33	13	2830	56	1	16	9
O=c1[nH]nc(SCc2cc(Cl)ccc2Cl)c(=O)[nH]1	-14	-6.1	/	10	2	15	-4
CC(C)C1Nc2ccc(C(=O)N3CCN(c4ccccn4)CC3)cc2NC1=O (configuration not stated)	-23	-2.8	4791	-5	7	-2	-2
CCn1cc(S(=O)(=O)CC(=O)Nc2cc(C)on2)c2ccccc21	-18	-0.4	3897	-4	-2	4	10
CC(=O)NS(=O)(=O)c1ccc2sc(C)nc2c1	-8	0.8	3497	1	2	0	-2
Cc1ccc(CSc2nnc(-c3ccccc3N)c(=O)[nH]2)cc1	/	3.9	11779	-1	0	1	-4
COc1cc(S(N)(=O)=O)c(OC)cc1N	-2	4.8	2812	-2	-1	3	8
CCOc1ccccc1-c1cc(C(=O)N/N=C(\C)c2cccnc2)c2ccccc2n1	5	/	5360	/	4	/	/
Clc1cccc(Cl)c1OCCCCN1CCCCC1	-16	5.3	4140	3	1	-5	-2
Oc1[nH]c2ccccc2c1C1=NCCCCC1	-25	5.9	2926	-3	8	7	6
Cc1ccc(C(C)C)c(OCC(=O)N2CCN(c3ncccn3)CC2)c1	-15	12	5704	13	/	7	1
COCCn1c(=O)[nH]c2cc(C(=O)NCc3cccnc3)ccc2c1=O	13	1.4	4384	4	-7	-10	-5
Cn1c(=NN=Cc2ccc(N3CCOCC3)cc2)sc2ccccc21	/	8.1	/	1	/	0	7
C=CC(O)Cc1c(C)n[nH]c1C (configuration not stated)	/	1.8	7574	10	3	15	2
O=C(CSc1ccccc1)NCCCN1CCOCC1	1	7.2	2428	1	-6	8	4
CCOC(=O)N1CCN(C(=S)NCCOC)CC1	-23	4.3	18608*	-4	3	10	5
O=C(NN1C(=O)/C(=C/c2cccs2)SC1=S)c1ccccc1	-23	18	8439	-16	3	7	4
CC(C)CNC(=O)NC(=O)CSc1nc2ccccc2n1CC(C)C	-11	-0.5	2077	-17	11	/	/
CN1CCN(Cc2nc3c(c(=O)[nH]c(=O)n3C)n2CCc2ccccc2)CC1	-26	0.9	5776	12	5	11	2
CCCCNC(=O)CSc1nc2cc3c(cc2c(=O)n1Cc1ccco1)OCO3	-11	9.4	4933	4	5	11	9
Cn1ccsc1=NC(=O)c1ccc(S(C)(=O)=O)c([N+](=O)[O-])c1	2	3.2	6039	12	1	5	10
CC(=O)N1CCN(C(=O)c2ccc(-c3cccc(C(F)(F)F)c3)o2)CC1	-24	5.1	5124	2	-8	1	6
NC(=O)c1ccc(C(F)(F)F)cn1	-34	5.7	4332	5	3	1	2
COc1ccc2c(c1)C1C(CO2)C(c2ccccc2)[C@]2(C)C(=O)Nc3cc(OC)c(OC)cc3C(=O)N12 (some centres not stated)	/	-4.3	/	15	/	0	6
O=C(CCCc1ccccc1)NCc1ccccc1Cl	-12	0.4	/	6	-17	10	3
CCN(CC)S(=O)(=O)c1cc(C(=O)O)ccc1OC	-20	5.0	4323	17	4	2	7
CC(C)(C)c1ccc(-c2noc(CCC(=O)NCc3ccco3)n2)cc1	-18	-0.5	3413	10	5	-10	-5
CCOCCC(=O)Nc1cc(Cl)ccc1OC	-28	4.8	22752*	0	9	15	12
CCOc1ccc(C(C)=O)cc1COc1ccc(C)nc1[N+](=O)[O-]	-18	-0.8	3896	-1	-8	5	10
COCC(=O)N(C)C[C@H]1N[C@@](C)(C(=O)OC)[C@H]2C(=O)N(Cc3ccccc3)C(=O)[C@@H]12	13	1.1	3913	0	/	-2	4
O=[N+]([O-])c1cc2cccnc2c2ncccc12	/	3.5	/	-2	-16	/	/
c1ccc(CCc2cccnc2)cc1	-7	0.2	2891	-1	/	0	-6
O=C(NN1C(=O)C2C3C=CC(C4CC34)C2C1=O)c1ccc(Cl)cc1Cl (configuration not stated)	-7	4.8	3230	-5	12	8	5
N#Cc1cc2c(nc1SCc1ccc(Cl)cc1)CCCC2	-19	-1.2	11113	2	3	8	4
c1ccc(-c2nnc(C(c3ccccc3)c3ccccc3)o2)cc1	-23	38	2177	27	-3	-4	0
CC(=O)Nc1ccc(SCC(=O)Nc2ccccc2-c2ccccc2)cc1	-15	3.8	10050	-3	15	9	2
O=[N+]([O-])c1cc2ccccc2nc1-c1ccccc1	-37	3.7	3816	8	/	24	15
Cc1c(C(=O)N(C)c2cccc(Cl)c2)cnn1-c1ccccc1	-29	0.4	3418	-1	0	10	5
O=C(CCC(=O)c1cccs1)NC(c1ccccc1)c1ccccc1	-4	0.3	4507	16	0	2	10
CCN(C[C@H]1N[C@@](C)(C(=O)OC)[C@H]2C(=O)N(C)C(=O)[C@@H]12)C(=O)Nc1ccc(OC)cc1	-10	1.9	2901	4	/	0	1
O=C(O)CN1C(=O)/C(=C\c2cc(Br)ccc2OCc2ccc([N+](=O)[O-])cc2)SC1=S	-2	-4.4	4097	-13	2	-4	1
CCOc1ccccc1N1CCN(C(=O)COc2ccc3c(C)cc(=O)oc3c2)CC1	-16	3.3	4304	-5	-8	-5	-3
CC(C#N)Sc1ccc(S(=O)(=O)N(C)C2CCCCC2)cn1 (configuration not stated)	-46	3.7	3836	6	/	7	2

Look-ups from the entries so far:
Autofluor counter with CCN(C[C@H]1N[C@@](C)(C(=O)OC)[C@H]2C(=O)N(C)C(=O)[C@@H]12)C(=O)Nc1ccc(OC)cc1 = 2901
Sa RN4220 lethal with O=C(O)CN1C(=O)/C(=C\c2cc(Br)ccc2OCc2ccc([N+](=O)[O-])cc2)SC1=S = -4.4
